Screening results from PubChem BioAssay.
RE007 growth inh: less growth of the S. pombe RE007 Vpr strain; S. pombe RE007 Vpr strain, BacTiter-Glo ATP luminescence, 24 h; control for the full effect not named in the record; Potency, µM (highest dose often 92.2 µM), without a hit: at the top dose activity change, negative = less growth; actives 0.21% (n = 360,000); active = well fitted falling curve with a large enough effect; inconclusive = small, poorly fitted or top-dose-only effect; inactive = no such curve, though single readings can be large or run the other way;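 also: % is scaled to controls: 0 for no effect and ±100 for the full control effect; nearly all actives have a fitted effect of over 50% in size; the assay follows cell death caused by Vpr and the record does not say whether a fall means rescue or toxicity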
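Fission yeast strain RE007, carrying one chromosomally integrated HIV-1 vpr copy, was seeded at OD 0.01 in PMG+AL medium with 23 nL pinned compound. After 24 h at 30 °C and 99% humidity, viability was read by BacTiter-Glo luminescence.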
Cruzain Triton: inhibitors of Trypanosoma cruzi cruzain with detergent. actives 0.43% (n = 200,000). Potency, µM, inactives show max response, negative = inhibition, usual class: inhibitors. AID 1478. purified cruzain, Z-FR-AMC fluorescence, 0.01% Triton. P25779;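 also: plate controls were neutral wells for no effect and buffer without enzyme for full effect; nearly all actives have a fitted effect of over 40% in size; top concentration of the series not given in the record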
Target sequence (P25779 123-467 limits assumed): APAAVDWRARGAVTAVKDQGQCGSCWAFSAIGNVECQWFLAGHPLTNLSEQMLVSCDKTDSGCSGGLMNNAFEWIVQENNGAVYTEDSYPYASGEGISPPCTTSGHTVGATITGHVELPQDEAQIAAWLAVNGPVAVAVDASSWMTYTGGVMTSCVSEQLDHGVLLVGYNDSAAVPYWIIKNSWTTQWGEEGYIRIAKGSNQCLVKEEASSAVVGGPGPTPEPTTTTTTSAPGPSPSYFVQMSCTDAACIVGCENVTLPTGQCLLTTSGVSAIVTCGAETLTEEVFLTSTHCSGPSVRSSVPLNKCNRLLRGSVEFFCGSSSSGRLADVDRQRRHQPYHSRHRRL
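Z-FR-AMC hydrolysis (2 uM substrate) by cruzain (1.5 nM) monitored kinetically at ex 360/em 450 nm after 15 min room-temperature compound exposure; 0.01% Triton X-100, pH 5.5, 5 mM DTT.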
MARV entry inh: inhibitors of Marburg virus binding or cell entry. actives 1.8% (n = 300,000). Marburg virus pseudotyped entry inhibition, cell reporter; control for the full effect not named in the record; about a third of the inactives were read at about 46 µM. AID 540276. Potency, µM (series often up to 37.8 µM), without a hit: at the top dose activity change, negative = inhibition, most hits filed as inhibitors; active = well fitted inhibition curve with a large enough effect; inconclusive = small, poorly fitted or top-dose-only effect, or effect the other way; inactive = flat fitted curve, though single readings scatter; tested in HEK293 cells; about a fifth of its hits are not listed in these tables; also: % is scaled to controls: 0 for no effect and ±100 for the full control effect; luciferase read-out
Cruzain noTriton: blocks cruzain activity in detergent-free assay | P25779 | purified cruzain, Z-FR-AMC fluorescence, no detergent | Potency, µM, without a hit: max response, negative = inhibition, most hits filed as inhibitors | actives 2.3% (n = 200,000);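 also: plate controls were enzyme without inhibitor for no effect and buffer without enzyme for full effect; nearly all actives have a fitted effect of over 40% in size; top concentration of the series not given in the record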
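Purified cruzain at 1.5 nM, pre-incubated 15 min with compound at room temperature in 100 mM sodium acetate pH 5.5, 5 mM DTT, 0.00005% Triton X-100. Reaction started with 2 uM Z-FR-AMC; AMC fluorescence increase over 60 s gives rate.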
LASV entry inh: blocks Lassa virus binding to or entry into cells; Lassa virus pseudotype entry inhibition, cell reporter; control for the full effect not named in the record; Potency, µM (top dose mostly 37.9 µM), for the others: top-dose activity change, negative = inhibition, usual class: inhibitors; actives 1.2% (n = 300,000); AID 540256; active means well fitted inhibition curve with a large enough effect; inconclusive means small, poorly fitted or top-dose-only effect, or effect the other way; inactive means flat fitted curve, though single readings scatter; tested in HEK293 cells; also: % is scaled to controls: 0 for no effect and ±100 for the full control effect; nearly all actives have a fitted effect of over 50% in size; luciferase read-out
StopGo reporter: FMDV 2A StopGo reporter, luciferase signal; human cells with a luciferase reporter of 2A StopGo recoding; control for the full effect not named in the record; Potency, µM (series often up to 57.9 µM), for the others: at the top dose signal change, negative = less light; actives 1.2% (n = 410,000); AID 1159524; active = well fitted falling curve with a large enough effect; inconclusive = small, poorly fitted or top-dose-only effect; inactive = no such curve, though single readings can be large or run the other way; tested in HEK293T cells; also: % is scaled to controls: 0 for no effect and ±100 for the full control effect; nearly all actives have a fitted effect of over 45% in size; luciferase light after 4 h
NS1 inh: influenza NS1 inhibition; S. cerevisiae slowed by influenza A NS1, growth recovery by OD600; Potency, µM (titrated, usually from 46.1 µM), inactives show at the top dose activity, positive = more growth; actives 0.4% (n = 270,000); active means well fitted rising curve with a large enough effect; inconclusive means small, poorly fitted or top-dose-only effect; inactive means no such curve, though single readings can be large or run the other way; also: nearly all actives have a fitted effect of over 50% in size
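Read-out: OD600 growth recovery of NS1-expressing budding yeast. Cells grown overnight at 30C in -URA glucose medium, washed, resuspended and diluted 1:100 in 2% galactose assay medium, pH 6.0. Same strain lacking NS1 served as positive control.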
SARS PLP yeast: inhibitors of SARS-CoV papain-like protease in yeast; S. cerevisiae expressing SARS-CoV PLpro, growth rescue; control for the full effect not named in the record; Potency, µM (series often up to 32.9 µM), without a hit: top-dose activity, positive = growth rescue; actives 0.19% (n = 330,000); AID 485353; active means well fitted rising curve with a large enough effect; inconclusive means small, poorly fitted or top-dose-only effect; inactive means no such curve, though single readings can be large or run the other way; also: 0% is about no effect; nearly all actives have a fitted effect of over 55% in size; growth read by luminescence after 48 h
Starred values were filed as active, the others as inactive; & = joins results of further samples; [ ] = another dose, or the depositor's remark. Unless noted, calls follow the shape of the dose curve; as a rule, active = well fitted curve in the direction sought with a large enough effect; inconclusive = small, poorly fitted or top-dose-only effect, or another doubt; inactive = no such curve, though single readings can be large; an effect the other way counts as inactive or inconclusive. Potency is read from the fitted curve at half-maximal effect. The order is random (roughly 4.6% active in at least one column).

Screening CCOC(=O)c1ccc(NC(=O)CCc2c(C)nc3c(c(C)nn3-c3ccccc3)c2C)cc1 returned Cruzain Triton -2.4%, MARV entry inh -10.0%[46.1 µM], Cruzain noTriton 6.4%, LASV entry inh 3.0%[46.1 µM] and StopGo reporter -22.3%.
Screening CC1=NN(C(=O)c2ccc(Cl)cc2)C(O)(c2ccccc2)C1 (stereo not drawn) returned RE007 growth inh -20.8%, MARV entry inh -24.6%[46.1 µM], LASV entry inh -9.9%[46.1 µM], StopGo reporter 17.5%, NS1 inh 9.4% and SARS PLP yeast 13.0%.
CN(C)S(=O)(=O)c1ccc(C(=O)NCCS(=O)(=O)N2CCN(c3ccccc3)CC2)cc1 was read as Cruzain Triton 1.0%, Cruzain noTriton 0.2%, LASV entry inh 13.8%[46.1 µM] and StopGo reporter 1.8%.
Screening COc1ccc(CCNC(=O)CSCc2ccc(Cl)cc2)cc1OC returned RE007 growth inh -9.6%, Cruzain Triton 2.8%, MARV entry inh 20.1%, Cruzain noTriton -5.9%, LASV entry inh -2.1%, StopGo reporter -23.2%, NS1 inh -13.4% and SARS PLP yeast -1.6%.
Screening Cc1ccc(N(CC(=O)Nc2ccccc2C(=O)N2CCOCC2)S(C)(=O)=O)cc1 returned RE007 growth inh 10.3%, Cruzain Triton 5.5%, MARV entry inh 22.3%[46.1 µM], Cruzain noTriton 21.1%, LASV entry inh 16.6%, StopGo reporter -1.9%, NS1 inh 6.6% and SARS PLP yeast 26.0%.
Screening CCCCCOc1ccc(C(=O)CCN2CCOCC2)cc1 returned RE007 growth inh 17.8µM*, MARV entry inh inconclusive, LASV entry inh -6.3%, StopGo reporter 5.2%, NS1 inh -26.5% and SARS PLP yeast -9.5%.
For CCN(CC(=O)NCc1ccc(Cl)cc1)C(=O)/C=C/c1cccs1 the results were RE007 growth inh 2.0%, MARV entry inh 2.2%, LASV entry inh -8.7%, StopGo reporter -15.7% and SARS PLP yeast -3.6%.
Screening COc1ccc(NC(=O)CN(C)S(=O)(=O)c2ccc3nc(C)sc3c2)cc1 returned Cruzain Triton -0.7%, Cruzain noTriton -5.8%, LASV entry inh -20.6%[46.1 µM] and StopGo reporter -12.6%.
For COc1ccc(C2=NC(c3ccccc3)CO2)cc1 (stereo not drawn) the results were Cruzain Triton -0.1%, MARV entry inh inconclusive, Cruzain noTriton -11.0%, LASV entry inh inconclusive, NS1 inh 4.2% and SARS PLP yeast 7.1%.
Screening COC(=O)Cn1cc(/C=N/NC(=O)c2ccc(C#N)cc2F)c2ccccc21 returned RE007 growth inh -8.3%, Cruzain Triton -3.9%, MARV entry inh 15.6%, Cruzain noTriton -3.7%, LASV entry inh 0.4%, StopGo reporter 13.0%, NS1 inh -6.5% and SARS PLP yeast -0.3%.
For CCCc1n[nH]c2c1C(=O)CC(C)(C)C2 the results were RE007 growth inh 41.3%, Cruzain Triton -1.0%, MARV entry inh 2.0%[46.1 µM], Cruzain noTriton 8.5%, LASV entry inh 0.1%, StopGo reporter -8.8%, NS1 inh -14.3% and SARS PLP yeast inconclusive.
`O=C(CSc1ccc(-c2ccccn2)nn1)NCc1ccc(F)cc1` gave RE007 growth inh -3.0%, MARV entry inh inconclusive, LASV entry inh -3.6%, StopGo reporter 7.9% and SARS PLP yeast inconclusive.
For O=C(C1CC(=O)N(C2CCCCC2)C1)N1CCN(c2cccc(C(F)(F)F)c2)CC1 (stereo not drawn) the results were RE007 growth inh 18.2%, MARV entry inh 2.9%, LASV entry inh inconclusive, StopGo reporter -2.1%, NS1 inh 12.3% and SARS PLP yeast 16.4%.
CCC1Sc2ccc(S(=O)(=O)CCC(=O)Nc3ccccc3Cl)cc2NC1=O (stereo not drawn) was read as RE007 growth inh 3.4%, StopGo reporter -3.6%, NS1 inh -1.8% and SARS PLP yeast 3.0%.
For O=C(NCc1ccc2c(c1)OCO2)c1cccc2c1C(=O)N(C1CCCCC1)C2 the results were RE007 growth inh -0.5%, Cruzain Triton -0.8%, MARV entry inh 9.5%, Cruzain noTriton -7.9%, LASV entry inh 17.4%, StopGo reporter -18.3%, NS1 inh -3.8% and SARS PLP yeast 0.5%.
Screening COc1ccc(CC(=O)Nc2cccc(-c3csc(C)n3)c2)cc1 returned RE007 growth inh 6.7%, Cruzain Triton -7.1%, MARV entry inh inconclusive, Cruzain noTriton -16.3%, LASV entry inh inconclusive, StopGo reporter inconclusive, NS1 inh 0.5% and SARS PLP yeast 3.0%.
Screening C=CCn1c(CCSCc2ccccc2)n[nH]c1=S returned RE007 growth inh 7.6%, StopGo reporter -13.1%, NS1 inh -0.8% and SARS PLP yeast 8.2%.
Screening COc1ccc2nc(NNC(=O)c3cc(=O)c4ccccc4o3)sc2c1 returned RE007 growth inh -23.3%, StopGo reporter 23.2%, NS1 inh 4.5% and SARS PLP yeast 2.3%.
`Cc1ccc(NNC(=O)c2ccno2)cc1C` gave RE007 growth inh 66.6%, MARV entry inh -9.5%, LASV entry inh inconclusive, StopGo reporter -1.7%, NS1 inh -59.1% and SARS PLP yeast -4.1%.
Screening CSc1ccccc1C(=O)Nc1cccc(C(C)=O)c1 returned RE007 growth inh -11.6%, Cruzain Triton 0.6%, MARV entry inh 3.4%, Cruzain noTriton 2.4%, LASV entry inh 13.8%, StopGo reporter 7.2%, NS1 inh 3.2% and SARS PLP yeast -4.8%.
Screening Cn1c(C(=O)NCCN2CCOCC2)cc2sccc21 returned RE007 growth inh -4.9%, Cruzain Triton -2.1%, MARV entry inh 0.0%, Cruzain noTriton -4.9%, LASV entry inh 8.5%, StopGo reporter 39.2%[activator], NS1 inh -1.0% and SARS PLP yeast -4.2%.
`CCn1cc(C(=O)N[C@@H](CC(C)C)C(=O)NCCCn2ccnc2)c(=O)c2cc3c(cc21)OCO3` gave RE007 growth inh -12.8%, StopGo reporter 11.3%, NS1 inh -1.7% and SARS PLP yeast -2.8%.
For COc1cc(/C=C2\SC(=S)N(CC(=O)NC3=NCCS3)C2=O)cc(OC)c1OC the results were RE007 growth inh -4.8%, LASV entry inh 0.6%, StopGo reporter -10.1% and SARS PLP yeast 1.3%.
`Cc1c(N/C=C(\Cl)C(=O)C(F)(F)F)c(=O)n(-c2ccccc2)n1C` gave RE007 growth inh 7.3%, MARV entry inh -10.5%[46.1 µM], LASV entry inh 7.7%, StopGo reporter -0.9%, NS1 inh -1.8% and SARS PLP yeast -1.3%.
For O=C1CCC([N+](=O)[O-])C(c2ccc(Cl)cc2)N1 (stereo not drawn) the results were RE007 growth inh 3.4%, Cruzain Triton 1.6%, MARV entry inh -2.9%, Cruzain noTriton -6.2%, LASV entry inh 4.1%, StopGo reporter -11.8%, NS1 inh -1.5% and SARS PLP yeast 0.6%.
Screening O=C(CSC(=S)N1CCOCC1)Nc1nccs1 returned RE007 growth inh -6.7%, StopGo reporter -9.6%, NS1 inh 2.0% and SARS PLP yeast 0.5%.
O=C(NN1C(=O)C2C3CCC(O3)C2C1=O)c1ccco1 (stereo not drawn) was read as RE007 growth inh -1.5%, Cruzain Triton 0.0%, MARV entry inh inconclusive, Cruzain noTriton -3.1%, LASV entry inh 19.2%, StopGo reporter -10.9%, NS1 inh 10.2% and SARS PLP yeast 9.6%.
For C=CCc1ccccc1OCC(O)CN1CCN(c2ccc(C)cc2)CC1 (stereo not drawn) the results were RE007 growth inh 1.4%, Cruzain Triton 3.3%, MARV entry inh -25.6%, Cruzain noTriton 4.5%, LASV entry inh -17.4%, StopGo reporter inconclusive, NS1 inh -8.7% and SARS PLP yeast -14.2%.
`Cc1cc(/C=C2\SC(=S)NC2=O)c(C)[nH]1` gave RE007 growth inh -7.1%, MARV entry inh inconclusive, LASV entry inh 9.3%[46.1 µM], StopGo reporter 14.6%, NS1 inh 1.4% and SARS PLP yeast 0.5%.
Screening O=C(COC(=O)C1COc2ccccc2O1)NC(=O)NC1CCCC1 (stereo not drawn) returned RE007 growth inh -3.5%, Cruzain Triton -1.5%, MARV entry inh 2.8%, Cruzain noTriton 16.8%, LASV entry inh 12.3%, StopGo reporter -4.7%, NS1 inh -19.3% and SARS PLP yeast -5.9%.
For Cc1cccc(N=C2NN=C(c3ccccc3F)CS2)c1C the results were RE007 growth inh 9.0%, MARV entry inh inconclusive, LASV entry inh -0.8%[46.1 µM], StopGo reporter 11.1% and SARS PLP yeast 3.7%.
`Cc1ccccc1OCC(=O)N(CC(C)C)c1c(N)n(CC(C)C)c(=O)[nH]c1=O` gave RE007 growth inh -10.0%, MARV entry inh -13.6%[46.1 µM], LASV entry inh 28.3%[46.1 µM], StopGo reporter -16.3%, NS1 inh 0.7% and SARS PLP yeast 0.1%.
For COc1cc([N+](=O)[O-])ccc1NC(=O)NNC(=O)c1sccc1C the results were RE007 growth inh 5.2%, MARV entry inh inconclusive, LASV entry inh 9.1%[46.1 µM], StopGo reporter 36.6%[activator], NS1 inh 8.1% and SARS PLP yeast 19.6%.
For CCOc1ccccc1CNC(=O)c1cc2oc3ccccc3c2n1CC the results were RE007 growth inh 1.1%, Cruzain Triton -17.0%&-11.5%, MARV entry inh 3.26µM*, Cruzain noTriton 31.6µM*, LASV entry inh 5.17µM*, StopGo reporter -13.9%&-21.1%, NS1 inh 9.6% and SARS PLP yeast -0.8%.
Screening Cc1ccc(NC(=O)CC2C(=O)NC3CCCCC3N2C(=O)c2ccc(F)cc2)cc1C (stereo not drawn) returned RE007 growth inh 4.7%, Cruzain Triton 1.3%, MARV entry inh -4.7%[46.1 µM], Cruzain noTriton 15.9%, LASV entry inh 8.3%, StopGo reporter inconclusive, NS1 inh -33.6% and SARS PLP yeast 0.1%.
`CCCC(=O)Nc1ccc(C(=O)/C=C/c2ccc(SC)cc2)cc1` gave RE007 growth inh -12.7%, Cruzain Triton -4.9%, MARV entry inh inconclusive, Cruzain noTriton inconclusive, LASV entry inh inconclusive, StopGo reporter -7.0%, NS1 inh -12.3% and SARS PLP yeast -8.4%.
Screening CCNC(=S)NNc1nncc2ccccc12 returned RE007 growth inh -16.0%, MARV entry inh -5.8%[46.1 µM], LASV entry inh 23.1%, StopGo reporter 22.1% and SARS PLP yeast 8.7%.
`COc1cccc(CN2CCNC(=O)C2CC(=O)NCc2cn3ccc(C)cc3n2)c1OC` (stereo not drawn) gave RE007 growth inh 6.1%, StopGo reporter -57.8%, NS1 inh -1.4% and SARS PLP yeast 5.6%.
`COc1cc(C(=O)N2CCSCC2)ccc1OC1CCN(C(C)=O)CC1` gave RE007 growth inh -7.6%, MARV entry inh 6.4%[46.1 µM], LASV entry inh 11.9%[46.1 µM], StopGo reporter 8.1% and NS1 inh 15.1%.
